# Screening results from PubChem.
# Lassa entry inh = blocks Lassa virus binding to or entry into cells. 300,000 tested, 1.2% active. Potency, µM (titrated, usually from 37.9 µM), without a hit: at the highest dose activity change, negative = inhibition, usual class: inhibitors. AID 540256. Lassa virus pseudotype entry inhibition, cell reporter; control for the full effect not named in the record; active means well fitted inhibition curve with a large enough effect; inconclusive means small, poorly fitted or top-dose-only effect, or effect the other way; inactive means flat fitted curve, though single readings scatter; tested in HEK293 cells; also: % is scaled to controls: 0 for no effect and ±100 for the full control effect; nearly all actives have a fitted effect of over 50% in size; luciferase read-out
# SARS PLpro yeast = blocks SARS-CoV papain-like protease in a yeast assay | S. cerevisiae expressing SARS-CoV PLpro, growth rescue; control for the full effect not named in the record | Potency, µM (series often up to 32.9 µM), inactives show top-dose activity, positive = growth rescue | 330,000 tested, 0.19% active; active means well fitted rising curve with a large enough effect; inconclusive means small, poorly fitted or top-dose-only effect; inactive means no such curve, though single readings can be large or run the other way; also: 0% is about no effect; nearly all actives have a fitted effect of over 55% in size; growth read by luminescence after 48 h
# 2A StopGo = FMDV 2A StopGo reporter, luciferase signal | human cells with a luciferase reporter of 2A StopGo recoding; control for the full effect not named in the record | Potency, µM (titrated, usually from 57.9 µM), for the others: at the highest dose signal change, negative = less light | 410,000 tested, 1.2% active; active = well fitted falling curve with a large enough effect; inconclusive = small, poorly fitted or top-dose-only effect; inactive = no such curve, though single readings can be large or run the other way; tested in HEK293T cells; also: % is scaled to controls: 0 for no effect and ±100 for the full control effect; nearly all actives have a fitted effect of over 45% in size; luciferase light after 4 h
# Cruzain Triton = inhibitors of Trypanosoma cruzi cruzain with detergent; P25779; purified cruzain, Z-FR-AMC fluorescence, 0.01% Triton; Potency, µM, for inactives: max response, negative = inhibition, usual class: inhibitors; 200,000 tested, 0.43% active; AID 1478;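 also: plate controls were neutral wells for no effect and buffer without enzyme for full effect; nearly all actives have a fitted effect of over 40% in size; top concentration of the series not given in the record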
# Target sequence (P25779 123-467 limits assumed): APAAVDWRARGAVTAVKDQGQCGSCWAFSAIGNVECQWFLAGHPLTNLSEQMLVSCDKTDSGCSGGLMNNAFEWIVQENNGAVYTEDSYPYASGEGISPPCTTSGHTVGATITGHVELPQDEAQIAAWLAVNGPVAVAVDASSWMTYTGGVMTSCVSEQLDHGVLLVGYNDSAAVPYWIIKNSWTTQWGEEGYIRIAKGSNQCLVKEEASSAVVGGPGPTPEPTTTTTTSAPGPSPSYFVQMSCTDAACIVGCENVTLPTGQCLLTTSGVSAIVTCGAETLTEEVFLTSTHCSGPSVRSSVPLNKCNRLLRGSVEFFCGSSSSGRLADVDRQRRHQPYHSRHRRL
#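 Steps: dispense cruzain (1.5 nM final) in acetate buffer pH 5.5 with DTT and 0.01% Triton X-100; pin-transfer compounds; incubate 15 min RT; add Z-FR-AMC (2 uM final); read fluorescence every 30 s, using the 60 s intensity change.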
# Cruzain noTriton = inhibitors of Trypanosoma cruzi cruzain without detergent; purified cruzain, Z-FR-AMC fluorescence, no detergent; Potency, µM, for the others: max response, negative = inhibition, usual class: inhibitors; 200,000 tested, 2.3% active;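 also: plate controls were enzyme without inhibitor for no effect and buffer without enzyme for full effect; nearly all actives have a fitted effect of over 40% in size; top concentration of the series not given in the record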
#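 Purified cruzain at 1.5 nM, pre-incubated 15 min with compound at room temperature in 100 mM sodium acetate pH 5.5, 5 mM DTT, 0.00005% Triton X-100. Reaction started with 2 uM Z-FR-AMC; AMC fluorescence increase over 60 s gives rate.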
# Marburg entry inh = inhibitors of Marburg virus binding or cell entry. 300,000 tested, 1.8% active. Potency, µM (highest dose often 37.8 µM), for inactives: top-dose activity change, negative = inhibition, hits mostly inhibitors. Marburg virus pseudotyped entry inhibition, cell reporter; control for the full effect not named in the record; about a third of the inactives were read at about 46 µM. AID 540276; active = well fitted inhibition curve with a large enough effect; inconclusive = small, poorly fitted or top-dose-only effect, or effect the other way; inactive = flat fitted curve, though single readings scatter; tested in HEK293 cells; about a fifth of its hits are not listed in these tables; also: % is scaled to controls: 0 for no effect and ±100 for the full control effect; luciferase read-out
# RE007 growth inh = less growth of the S. pombe RE007 Vpr strain; S. pombe RE007 Vpr strain, BacTiter-Glo ATP luminescence, 24 h; control for the full effect not named in the record; Potency, µM (titrated, usually from 92.2 µM), for inactives: top-dose activity change, negative = less growth; 360,000 tested, 0.21% active; active = well fitted falling curve with a large enough effect; inconclusive = small, poorly fitted or top-dose-only effect; inactive = no such curve, though single readings can be large or run the other way;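 also: % is scaled to controls: 0 for no effect and ±100 for the full control effect; nearly all actives have a fitted effect of over 50% in size; the assay follows cell death caused by Vpr and the record does not say whether a fall means rescue or toxicity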
#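 Fission yeast RE007 carrying one integrated HIV-1 vpr copy, seeded at OD 0.01 in PMG+AL medium with 23 nL pinned compound. Grown 24 h at 30 degrees; viability read by BacTiter-Glo luminescence after 5 min.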
# NS1 function inh = blocks influenza NS1 protein function; Potency, µM (doses to about 46.1 µM), inactives show at the highest dose activity, positive = more growth; 270,000 tested, 0.4% active; AID 2326; S. cerevisiae slowed by influenza A NS1, growth recovery by OD600; active means well fitted rising curve with a large enough effect; inconclusive means small, poorly fitted or top-dose-only effect; inactive means no such curve, though single readings can be large or run the other way; also: nearly all actives have a fitted effect of over 50% in size
#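 Recovery from NS1-induced slow growth read by OD600 in budding yeast switched to galactose assay medium (pH 6.0, -URA) at 1:100 dilution. Compound 23 nl per well; the matching strain lacking NS1 serves as control.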
# An asterisk follows results filed as active; ? = inconclusive; / = no result given; [ ] = remark or other dose. Unless noted, calls follow the shape of the dose curve; as a rule, active = well fitted curve in the direction sought with a large enough effect; inconclusive = small, poorly fitted or top-dose-only effect, or another doubt; inactive = no such curve, though single readings can be large; an effect the other way counts as inactive or inconclusive. Potency is read from the fitted curve at half-maximal effect.
1. Cn1nccc1C(=O)OCC(=O)Nc1nc(-c2ccccc2)cs1
2. COc1cc(NC(=O)c2ccccc2F)ccc1NC(=O)c1ccccc1Cl
3. Cc1ccccc1-c1ccc(/C=C2/SC(N3CCOCC3)=NC2=O)o1
4. Cc1cc(NC(=O)CSc2nnc3c(C)cc4cc5c(cc4n23)OCO5)no1
5. O=C(c1ccncc1)N1CCN(C2CCCCC2)CC1
6. CCCn1c(=O)c(C(=O)Nc2c(C)n(C)n(-c3ccccc3)c2=O)c(O)c2ccccc21
7. COc1cccc(-c2nc(SCC(=O)NCC3CCCO3)c(-c3ccc(C)cc3)[nH]2)c1 (stereo not given)
8. Cn1c(NC(=O)C[n+]2cc(-c3ccccc3)n3c2CCC3)cc(=O)n(C)c1=O
9. COc1cc(CNCc2ccncc2)cc(OC)c1OC
10. COc1ccc(-c2nnn(CC(=O)N(Cc3ccccc3Cl)C(C(=O)NCC3CCCO3)c3ccco3)n2)cc1OC (stereo not given)

entry no.	1	2	3	4	5	6	7	8	9	10
Lassa entry inh	3%	-10%[46.1 µM]	13µM*	/	19%	2%	-21%[46.1 µM]	3%	/	?
SARS PLpro yeast	-2%	-1%	0%	5%	1%	8%	/	-4%	-1%	1%
2A StopGo	-8%	5%	-20%	/	-9%	0%	-19%	-9%	-15%	53%[activator]
Cruzain Triton	-8.2%	/	/	-4.2%	/	4.5%	-8.3%	3.1%	/	-3.8%
Cruzain noTriton	-6%	/	/	8%	/	22%	0%	-14%	/	?
Marburg entry inh	?	-4%[46.1 µM]	?	/	12%[46.1 µM]	-10%	?	1%	/	9%
RE007 growth inh	-7%	-27%	-20%	/	5%	0%	/	-21%	2%	-1%
NS1 function inh	-50%	/	2%	14%	3%	7%	/	0%	3%	-5%

# Molecules shown so far that contain a halogen:
2. COc1cc(NC(=O)c2ccccc2F)ccc1NC(=O)c1ccccc1Cl
10. COc1ccc(-c2nnn(CC(=O)N(Cc3ccccc3Cl)C(C(=O)NCC3CCCO3)c3ccco3)n2)cc1OC (stereo not given)

entry no.	2	10
Lassa entry inh	-10%[46.1 µM]	?
SARS PLpro yeast	-1%	1%
2A StopGo	5%	53%[activator]
Cruzain Triton	/	-3.8%
Cruzain noTriton	/	?
Marburg entry inh	-4%[46.1 µM]	9%
RE007 growth inh	-27%	-1%
NS1 function inh	/	-5%

# Structures listed so far that contain a furan ring, fused or not, in the order listed:
3. Cc1ccccc1-c1ccc(/C=C2/SC(N3CCOCC3)=NC2=O)o1
10. COc1ccc(-c2nnn(CC(=O)N(Cc3ccccc3Cl)C(C(=O)NCC3CCCO3)c3ccco3)n2)cc1OC (stereo not given)

entry no.	3	10
Lassa entry inh	13µM*	?
SARS PLpro yeast	0%	1%
2A StopGo	-20%	53%[activator]
Cruzain Triton	/	-3.8%
Cruzain noTriton	/	?
Marburg entry inh	?	9%
RE007 growth inh	-20%	-1%
NS1 function inh	2%	-5%

# Next part.
11. CCOC(=O)c1[nH]c2ccc(OCC)cc2c1NC(=O)CN1CCCC(C)C1 (stereo not given)
12. Cc1ccc2oc(C(=O)NCC(c3ccc(Cl)cc3)N3CCOCC3)c(C)c2c1 (stereo not given)
13. COc1ccc(Cc2nc(-c3ccc(NC(=O)c4cccnc4)cc3)no2)cc1
14. CC(C)(C)c1csc(NC(=O)c2cccs2)n1
15. O=C(Nc1ccc2oc(=O)ccc2c1)c1cccnc1Cl
16. O=C1C2CC=CCC2C(=O)N1c1n[nH]c(Cc2ccccc2)n1 (stereo not given)
17. CCOC(=O)/C=C1\CC(=O)Nc2nonc2N1
18. Cn1cccc1C(C#N)c1ncc(C(F)(F)F)cc1Cl (stereo not given)
19. O=C(Nc1ccc(N2CCOCC2)nc1N1CCOCC1)c1cccc(C(F)(F)F)c1
20. CCOc1ccc(CCNC(=O)c2cccc(-n3c(C)nc4cccnc43)c2C)cc1

entry no.	11	12	13	14	15	16	17	18	19	20
Lassa entry inh	?	-19%[46.1 µM]	-1%	?	-1%	11%	2%	-17%[46.1 µM]	-1%	-9%[46.1 µM]
SARS PLpro yeast	8%	/	0%	-23%	-1%	4%	3%	0%	1%	/
2A StopGo	-23%	?	-23%	-12%	4%	/	12%	-12%	-16%	0%
Cruzain Triton	0.9%	-8.1%	3.4%	-11%	4.7%	3.6%	0.5%	/	/	-1.3%
Cruzain noTriton	-11%	?	-24%	-10%	-16%	9%	2%	/	/	1%
Marburg entry inh	-17%	?	15%[46.1 µM]	?	0%	0%	-28%	-11%[46.1 µM]	-14%	/
RE007 growth inh	0%	/	1%	?	-12%	-6%	10%	-15%	4%	/
NS1 function inh	-6%	/	4%	-71%	-20%	-6%	?	24%	6%	/

# An excerpt from above, limited to 2A StopGo and Cruzain Triton:
no.	smiles	2A StopGo	Cruzain Triton
18	Cn1cccc1C(C#N)c1ncc(C(F)(F)F)cc1Cl (stereo not given)	-12%	/
19	O=C(Nc1ccc(N2CCOCC2)nc1N1CCOCC1)c1cccc(C(F)(F)F)c1	-16%	/

# (listing goes on)
21. CCN(CC)S(=O)(=O)c1cccc(NC(=O)CN2C(=O)NC3(CCC(C)CC3)C2=O)c1 (stereo not given)
22. CCCCn1c(N)c(N(CC(C)C)C(=O)c2cnccn2)c(=O)[nH]c1=O
23. Cc1c(C(=O)Nc2cccc(-c3nc4ccccc4s3)c2)oc2ccc(F)cc12
24. OCCC1CN(Cc2ccc(F)cc2Cl)CCN1CCc1ccccc1 (stereo not given)
25. COc1ccc(/C=C(/Sc2nnc(-c3ccc(Cl)cc3)o2)C(=O)O)cc1
26. CO/N=C\Cc1oc(=O)c(NC(=O)c2ccccc2)cc1C(=O)OC
27. C=CCN=C(NC#N)SCC(=O)NCc1ccccc1
28. O=C(CSc1nnc(NC(=O)C2CC2)s1)Nc1ccc(F)cc1
29. C=CCn1c(COc2ccc(Cl)cc2)nnc1SCc1ccc(C#N)cc1
30. CCCn1c(NC(=O)c2cccc(S(=O)(=O)N3CCCC3)c2)nc2ccccc21

entry no.	21	22	23	24	25	26	27	28	29	30
Lassa entry inh	-12%	-1%	11%[46.1 µM]	-18%[46.1 µM]	-2%	-1%	5%	-5%	?	?
SARS PLpro yeast	-1%	-12%	/	?	1%	1%	?	-1%	-11%	5%
2A StopGo	2%	-5%	4%	-5%	-15%	-8%	-16%	-25%	-5%	32µM*
Cruzain Triton	/	/	-0.1%	/	/	3.0%	-2.4%	1.5%	2.4%	-3.4%
Cruzain noTriton	/	/	0%	/	/	-10%	8%	-9%	-1%	-21%
Marburg entry inh	?	15%[46.1 µM]	27%[46.1 µM]	?	0%	13%	13%	6%	?	6.5µM*
RE007 growth inh	5%	-7%	/	2%	1%	-17%	-2%	-2%	-17%	-3%
NS1 function inh	/	/	/	-6%	/	15%	1%	3%	-175%	-33%

31. CN(C)S(=O)(=O)N1CCC(Oc2ccc(C(=O)NCCc3cscn3)cc2)CC1
32. COc1ccc(C2C(C(N)=O)=C(C)Nc3nc(-c4cccc(Cl)c4)nn32)cc1OC (stereo not given)
33. Cc1nc2c(c(SCC(=O)Nc3ccccc3C(F)(F)F)n1)CCC2
34. Cc1cc(C)n(-c2nc3cc(Cl)ccc3nc2Nc2ccc(C)c(F)c2)n1
35. Cc1ccc(S(=O)(=O)N2CCCCCC2)cc1C(=O)Nc1cccnc1
36. CCN(CC)S(=O)(=O)c1ccc2c(c1)nc(SCC(=O)N(C)C1CCS(=O)(=O)C1)n2CC (stereo not given)
37. CS(=O)(=O)Nc1ccccc1N=C(c1ccccc1)c1ccccc1
38. COc1ccc(Oc2nc(-c3ccccc3)ncc2C(=O)O)cc1
39. CC1=C(C(=O)OC2CCCCCC2)C(c2ccccc2Cl)CC(=O)N1 (stereo not given)
40. COC(=O)c1ccccc1NC(=O)CCCn1nc([N+](=O)[O-])cc1C

entry no.	31	32	33	34	35	36	37	38	39	40
Lassa entry inh	9%	13%	?	23%[46.1 µM]	6%	-14%	/	0%	6%[46.1 µM]	0%[46.1 µM]
SARS PLpro yeast	5%	0%	/	/	1%	0%	-1%	1%	/	0%
2A StopGo	-16%	7%	0%	-16%	-7%	-16%	-7%	1%	?	-17%
Cruzain Triton	/	-4.0%	-1.9%	-0.1%	/	/	/	/	-3.1%	/
Cruzain noTriton	/	?	-7%	8%	/	/	/	/	0%	/
Marburg entry inh	12%	-11%	10%[46.1 µM]	-5%[46.1 µM]	3%	0%[46.1 µM]	/	-2%[46.1 µM]	?	9%[46.1 µM]
RE007 growth inh	5%	8%	/	/	5%	0%	4%	3%	/	-11%
NS1 function inh	0%	-9%	/	/	12%	/	-10%	/	/	/

41. CCOC(=O)CNC(=O)C1c2cc(OC)c(OC)cc2C(=O)N(C)C1c1ccccc1F (stereo not given)
42. COCCCNC(=O)C(F)(F)C(F)(F)C(=O)NCCCOC
43. Cc1cc(C)n(CC(=O)c2cccc(N)c2)n1
44. CCOC(=O)c1c(NC(=O)c2ccccc2C)sc2c1CC(C)(C)OC2
45. Cc1ccc2nc(-c3ccc(NC(=O)C(C)N4C(=O)c5ccccc5C4=O)cc3)sc2c1 (stereo not given)
46. CC(C)Oc1ccc(CNC(=O)CCC(=O)N2CCSc3ccccc32)cc1
47. COC(=O)c1ccc(COc2ncnc3ccccc23)o1
48. COc1ccc(C2=NOC(C(=O)NCc3ccccc3)C2)cc1 (stereo not given)

entry no.	41	42	43	44	45	46	47	48
Lassa entry inh	0%	?	2%[46.1 µM]	?	?	/	7%	?
SARS PLpro yeast	0%	2%	1%	34%	6%	-7%	-4%	-7%
2A StopGo	-11%	11%	-6%	-23%	0%	-10%	20%	19%
Cruzain Triton	8.7%	1.6%	/	-29%	-2.9%	/	/	0.8%
Cruzain noTriton	15%	4%	/	19%	?	/	/	-3%
Marburg entry inh	-1%	0%	9%[46.1 µM]	-10%	?	/	6%[46.1 µM]	?
RE007 growth inh	-16%	?	48%	3%	-5%	9%	14%	8%
NS1 function inh	0%	2%	6%	-3%	9%	8%	-9%	8%
